Source: PubChem BioAssay
Marburg entry inh = qHTS for inhibitors of binding or entry into cells for Marburg Virus; Marburg virus pseudotyped entry inhibition, cell reporter; control for the full effect not named in the record; about a third of the inactives were read at about 46 µM; Potency, µM (titrated, usually from 37.8 µM), for the others: at the top dose activity change, negative = inhibition, most hits filed as inhibitors; actives 1.8% (n = 300,000); active = well fitted inhibition curve with a large enough effect; inconclusive = small, poorly fitted or top-dose-only effect, or effect the other way; inactive = flat fitted curve, though single readings scatter; tested in HEK293 cells; about a fifth of its hits are not listed in these tables; also: % is scaled to controls: 0 for no effect and ±100 for the full control effect; luciferase read-out
LASV entry inh = qHTS for Inhibitors of binding or entry into cells for Lassa Virus; actives 1.2% (n = 300,000); AID 540256, 2011; Lassa virus pseudotype entry inhibition, cell reporter; control for the full effect not named in the record; Potency, µM (titrated, usually from 37.9 µM), inactives show top-dose activity change, negative = inhibition, actives largely listed as inhibitors; active means well fitted inhibition curve with a large enough effect; inconclusive means small, poorly fitted or top-dose-only effect, or effect the other way; inactive means flat fitted curve, though single readings scatter; tested in HEK293 cells; also: % is scaled to controls: 0 for no effect and ±100 for the full control effect; nearly all actives have a fitted effect of over 50% in size; luciferase read-out
SARS PLP yeast = qHTS of Yeast-based Assay for SARS-CoV PLP; Potency, µM (titrated, usually from 32.9 µM), inactives show top-dose activity, positive = growth rescue; actives 0.19% (n = 330,000); S. cerevisiae expressing SARS-CoV PLpro, growth rescue; control for the full effect not named in the record; AID 485353, 2010; active means well fitted rising curve with a large enough effect; inconclusive means small, poorly fitted or top-dose-only effect; inactive means no such curve, though single readings can be large or run the other way; also: 0% is about no effect; nearly all actives have a fitted effect of over 55% in size; growth read by luminescence after 48 h
RE007 growth inh = qHTS Assay for Inhibitors of the HIV-1 protein Vpr | S. pombe RE007 Vpr strain, BacTiter-Glo ATP luminescence, 24 h; control for the full effect not named in the record | Potency, µM (titrated, usually from 92.2 µM), inactives show top-dose activity change, negative = less growth | actives 0.21% (n = 360,000) | AID 651644, 2012; active = well fitted falling curve with a large enough effect; inconclusive = small, poorly fitted or top-dose-only effect; inactive = no such curve, though single readings can be large or run the other way;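 also: % is scaled to controls: 0 for no effect and ±100 for the full control effect; nearly all actives have a fitted effect of over 50% in size; the assay follows cell death caused by Vpr and the record does not say whether a fall means rescue or toxicity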
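Fission yeast RE007 carrying one integrated HIV-1 vpr copy, seeded at OD 0.01 in PMG+AL medium with 23 nL pinned compound. Grown 24 h at 30 degrees; viability read by BacTiter-Glo luminescence after 5 min.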
Cruzain noTriton = qHTS Assay for Promiscuous and Specific Inhibitors of Cruzain (without detergent); Potency, µM, without a hit: max response, negative = inhibition, usual class: inhibitors; purified cruzain, Z-FR-AMC fluorescence, no detergent; actives 2.3% (n = 200,000);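 also: plate controls were enzyme without inhibitor for no effect and buffer without enzyme for full effect; nearly all actives have a fitted effect of over 40% in size; top concentration of the series not given in the record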
Target sequence (P25779 123-467 limits assumed): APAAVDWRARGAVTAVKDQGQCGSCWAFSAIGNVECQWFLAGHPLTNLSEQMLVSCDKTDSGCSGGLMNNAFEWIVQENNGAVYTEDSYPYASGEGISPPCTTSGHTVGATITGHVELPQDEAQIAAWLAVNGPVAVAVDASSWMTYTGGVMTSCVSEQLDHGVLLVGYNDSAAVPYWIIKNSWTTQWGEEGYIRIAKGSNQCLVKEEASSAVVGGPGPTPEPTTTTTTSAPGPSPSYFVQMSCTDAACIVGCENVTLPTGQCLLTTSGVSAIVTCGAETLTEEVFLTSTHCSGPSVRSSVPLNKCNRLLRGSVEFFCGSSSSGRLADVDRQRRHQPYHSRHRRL
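Detergent-free condition (0.00005% Triton X-100) in acetate buffer pH 5.5 with DTT. 1.5 nM enzyme and compound were pre-mixed 15 min, then 2 uM Z-FR-AMC substrate added; reaction progress from fluorescence change between first and third reads (60 s).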
2A StopGo = High Throughput Screening for Foot and Mouth Disease Virus Antivirals; human cells with a luciferase reporter of 2A StopGo recoding; control for the full effect not named in the record; Potency, µM (series often up to 57.9 µM), without a hit: at the highest dose signal change, negative = less light; actives 1.2% (n = 410,000); AID 1159524, 2015; active = well fitted falling curve with a large enough effect; inconclusive = small, poorly fitted or top-dose-only effect; inactive = no such curve, though single readings can be large or run the other way; tested in HEK293T cells; also: % is scaled to controls: 0 for no effect and ±100 for the full control effect; nearly all actives have a fitted effect of over 45% in size; luciferase light after 4 h
Cruzain Triton = qHTS Assay for Promiscuous and Specific Inhibitors of Cruzain (with detergent); Cruzipain (Trypanosoma cruzi), P25779; purified cruzain, Z-FR-AMC fluorescence, 0.01% Triton; Potency, µM, for the others: max response, negative = inhibition, usual class: inhibitors; actives 0.43% (n = 200,000); AID 1478, 2009;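 also: plate controls were neutral wells for no effect and buffer without enzyme for full effect; nearly all actives have a fitted effect of over 40% in size; top concentration of the series not given in the record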
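Sodium acetate buffer (100 mM, pH 5.5) containing 5 mM DTT and 0.01% Triton X-100 hosted 1.5 nM cruzain and test compound for 15 min at room temperature. Cleavage of 2 uM Z-FR-AMC was then tracked by fluorescence.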
NS1 inh = qHTS Assay for Inhibitors of Influenza NS1 Protein Function | Potency, µM (titrated, usually from 46.1 µM), for inactives: at the top dose activity, positive = more growth | S. cerevisiae slowed by influenza A NS1, growth recovery by OD600 | actives 0.4% (n = 270,000); active means well fitted rising curve with a large enough effect; inconclusive means small, poorly fitted or top-dose-only effect; inactive means no such curve, though single readings can be large or run the other way; also: nearly all actives have a fitted effect of over 50% in size
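Compounds were scored for reversing the slow growth caused by influenza A NS1 in S. cerevisiae, measured by optical density at 600 nm. Assay medium contained 2% galactose at pH 6.0; NS1-free yeast of the same strain were the positive control.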
Active calls of the source: *; ? = inconclusive; · = not tested or not shown; [ ] = remark or other dose. Unless noted, calls follow the shape of the dose curve; as a rule, active = well fitted curve in the direction sought with a large enough effect; inconclusive = small, poorly fitted or top-dose-only effect, or another doubt; inactive = no such curve, though single readings can be large; an effect the other way counts as inactive or inconclusive. Potency is read from the fitted curve at half-maximal effect.

SMILES	Marburg entry inh	LASV entry inh	SARS PLP yeast	RE007 growth inh	Cruzain noTriton	2A StopGo	Cruzain Triton	NS1 inh
CCOC(=O)c1ccc(NC(=O)CCc2nc(-c3ccccc3Cl)no2)cc1	?	?	5%	22%	5%	-9%	1.6%	-86%
COc1cc(/C=N/NC(=O)c2cccc([N+](=O)[O-])c2)ccc1OC(=O)c1ccco1	2%[46.1 µM]	3%	1%	1%	·	11%	·	·
Cc1cccc(C(=O)N2CCN(c3ccc(C(F)(F)F)cn3)CC2)c1C	-20%	-16%	-3%	-3%	-7%	?	-7.8%	-6%
CN(Cc1ccccc1)C(=O)N1CCOCC1	·	·	-1%	-7%	·	-3%	·	8%
CC(C)Oc1ccc(Cc2c(O)nc(NCCCN(C)C)[nH]c2=O)cc1	-2%	0%	?	1%	13%	-3%	-0.7%	4%
O=C(OCc1ccc(Br)cc1)c1cnc(Cl)c(Cl)c1	-8%[46.1 µM]	·	-1%	-4%	·	13%	·	2%
c1ccc(Cc2nnc(-c3ccccc3)o2)cc1	?	-26%	-4%	-5%	?	-15%	-6.7%	?
O=C(Nc1ccccc1)c1ccc(-c2ccc(F)cc2)s1	?	16%	-1%	1%	·	41%[activator]	·	2%
CCCCCCCC(=O)Nc1ccc(S(=O)(=O)Nc2nccs2)cc1	?	-7%	6%	-12%	-1%	25%	-11%	5%
Cc1cccc(Oc2nc3c(c(=O)n(C)c(=O)n3C)n2Cc2ccccc2)c1C	-24%[46.1 µM]	6%[46.1 µM]	·	·	3%	-24%	-1.6%	·
NC(=O)c1ccsc1NC(=O)COC(=O)/C=C/c1ccccc1[N+](=O)[O-]	?	12%	-1%	-6%	·	32µM*	·	·
NC(=O)NCCCC(NC(=O)c1ccc(C#CC2(O)CCCCC2)cc1)C(=O)O (stereo not given)	?	·	0%	0%	·	-1%	·	4%
Cc1ccccc1-c1ccc(=O)n(CC(=O)Nc2ccc(N3CCOCC3)cc2)n1	21%	12%	-2%	9%	11%	-12%	-2.5%	6%
COc1ccc(N2CCN(Cc3nc4c(c(=O)[nH]c(=O)n4C)n3Cc3ccccc3C)CC2)cc1	1%[46.1 µM]	6%[46.1 µM]	·	·	8%	-16%	0.2%	·
COC(=O)c1ccc(N)cc1O	5%[46.1 µM]	-4%	-5%	16%	0%	22%	5.1%	4%
Cc1ccc2nc(C(=O)N3CCCC(Nc4ccc(F)cc4)C3)cn2c1 (stereo not given)	26%	14%	-4%	-11%	·	46%[activator]	·	6%
N#Cc1c(=O)c2nc(NCc3ccccc3)ncc2n2ccccc12	-4%	8%	9%	12%	-2%	0%	-8.6%	5%
COc1ccc(C)cc1NC(=O)C1CC(=O)N(CCc2ccccc2)C1 (stereo not given)	0%[46.1 µM]	-9%[46.1 µM]	-2%	2%	·	-26%	·	·
CCCCCN(C(=O)NC(=O)Nn1cnnc1)S(C)(=O)=O	1%	0%	-3%	9%	-9%	·	2.3%	-1%
O=C(Cn1cnc2scc(-c3ccccc3)c2c1=O)NCc1ccco1	·	·	0%	4%	·	-7%	·	0%
Cc1ccc(N(CC(=O)NCC2CCCO2)S(=O)(=O)c2ccccc2)c(C)c1 (stereo not given)	?	?	-1%	21%	·	5%	·	3%
COCCOn1c(SCCOC)nc2ccccc2c1=O	3%[46.1 µM]	16%	1%	-1%	·	6%	·	0%
O=C(CNC(=O)c1ccccc1Cl)Nc1ccc(F)cc1	?	11%	12%	0%	-10%	23%	4.4%	-4%
NS(=O)(=O)c1ccc(NC(=O)c2ccc(F)cc2F)c(NC(=O)c2ccc(F)cc2F)c1	0%[46.1 µM]	0%	3%	-17%	·	-13%	·	0%
CNC(=O)c1ccc(Nc2nnc(-c3ccc(C)c(S(N)(=O)=O)c3)c3ccccc23)cc1	·	·	0%	4%	·	-3%	·	-6%

Only NS1 inh, for two of the compounds above:
| Molecule | NS1 inh |
| --- | --- |
| CCOC(=O)c1ccc(NC(=O)CCc2nc(-c3ccccc3Cl)no2)cc1 | -86% |
| NC(=O)NCCCC(NC(=O)c1ccc(C#CC2(O)CCCCC2)cc1)C(=O)O (stereo not given) | 4% |

(further entries)
SMILES	Marburg entry inh	LASV entry inh	SARS PLP yeast	RE007 growth inh	Cruzain noTriton	2A StopGo	Cruzain Triton	NS1 inh
O=C(COC(=O)CCc1nc2ccccc2c(=O)[nH]1)Nc1ccc2c(c1)OCO2	·	·	0%	-7%	·	15%	·	4%
Nc1ncc2c(n1)-c1ccccc1CC2	?	1%[46.1 µM]	-5%	-8%	·	17%	·	-1%
Cc1ccc2nc(COc3ccccc3NC(=O)c3ccccc3C)cc(=O)n2c1	·	?	·	·	-3%	-14%	3.3%	·
Cc1ccc(C)c(N2CCN(S(=O)(=O)c3ccc(-c4cc(C(F)(F)F)on4)s3)CC2)c1	·	?	·	·	-8%	-16%	3.4%	·
COc1ccc(C(=O)COc2ccc(F)cc2)c(O)c1C	?	?	-2%	-3%	·	9%	·	2%
COc1cc(NC(=O)c2cccnc2Sc2ccc(Cl)cc2)cc(OC)c1OC	-5%	-17%	4%	-3%	-6%	?	-4.8%	7%
O=c1[nH]c(CN2CCOCC2)nc2ccccc12	-1%[46.1 µM]	1%[46.1 µM]	-3%	6%	·	9%	·	·
CC(=O)Nc1nc(C)nc(C)c1C(C)=O	?	-2%	8%	-4%	0%	-12%	-2.7%	3%
Cc1cc(C)nc(NC(=O)Cc2ccc(Br)cc2)n1	?	16%[46.1 µM]	0%	-19%	·	2%	·	·
Cc1c(C(=O)N2CCOCC2)c(S(=O)(=O)Nc2cccc(C#N)c2)c(C)n1C	1%[46.1 µM]	-1%[46.1 µM]	22%	11%	·	17%	·	-3%
CCc1ccc(NC(=O)C(CC)c2ccccc2)cc1 (stereo not given)	-20%	-2%	-10%	0%	4%	6%	-4.2%	-7%
Cc1cc(C)c(S(=O)(=O)N2CCCC2CNC(=O)c2ccc3c(c2)OCO3)c(C)c1 (stereo not given)	17%	-8%	1%	-2%	·	-12%	·	·
CCN(CCO)C(=O)C12CCC(C)(C(=O)C1)C2(C)C (stereo not given)	-7%	25%[14.3 µM]	·	-15%	0%	1%	0.5%	2%
COc1ccccc1NC(=O)CC1COc2ccccc2O1 (stereo not given)	1%	9%	5%	-3%	-8%	17%	1.0%	-1%
CCC(=O)N1CCc2cc(S(=O)(=O)NC(C(=O)NCc3ccccc3)C(C)C)ccc21 (stereo not given)	9%	12%	4%	-13%	4%	20%	-0.6%	0%
NNC(=O)c1csc(COc2cc(Cl)cc(Cl)c2)n1	-3%[46.1 µM]	0%	-5%	11%	·	-12%	·	1%
Cn1ccnc1SCCC#N	16%	7%	-11%	-9%	6%	-11%	4.6%	6%
CN(C)c1ccc(/C(=N\O)C(F)(F)F)cc1	-6%	?	-4%	-4%	-1%	-20%	-1.3%	-35%
Cc1cccc(OCC(=O)NCC(=O)N/N=C/c2cccnc2)c1	-5%[46.1 µM]	-13%[46.1 µM]	0%	-10%	·	-8%	·	6%
O=C(O)c1cnc(N2CCOCC2)nc1	23%[46.1 µM]	6%	-4%	6%	·	-5%	·	·
COC(=O)[C@H](CCSC)NC(=O)Nc1cccc(C)c1C	-15%[14.2 µM]	-1%	0%	4%	·	-2%	·	-2%
CCOc1ccc(-n2nc(CO)c(C(=O)NCC(C)O)n2)cc1 (stereo not given)	12%[46.1 µM]	3%[46.1 µM]	·	·	1%	7%	-1.1%	·
CC(C)CN(C(=O)CC1CCCC1)c1c(N)n(Cc2ccccc2)c(=O)[nH]c1=O	-4%[46.1 µM]	-22%	-1%	8%	·	13%	·	·
NCC(O)COCCC12CC3CC(CC(C3)C1)C2 (stereo not given)	-24%[46.1 µM]	10%	-1%	6%	5%	-11%	-1.9%	?
O=C(CCCC(=O)OCC(=O)c1cccs1)Nc1ccc(Oc2ccccc2)cc1	0%	-9%	2%	-4%	25%	?	1.9%	-1%

Next part
SMILES	Marburg entry inh	LASV entry inh	SARS PLP yeast	RE007 growth inh	Cruzain noTriton	2A StopGo	Cruzain Triton	NS1 inh
COc1ccc(CCNC(=O)c2cccc(S(=O)(=O)N3CCCCCC3)c2)cc1	3%	·	-13%	-10%	·	-28%	·	·
C=CCn1c(=S)sc2c(=O)[nH]cnc21	·	·	0%	1%	·	-5%	·	1%
CC(=O)Oc1ccc(C(=O)Nc2cccc(C(=O)c3ccc(C)c(C)c3)c2)cc1	0%	·	1%	0%	-5%	-20%	6.6%	20%
CCn1c(C)c(C(C)=O)c(N2CCCCC2)nc1=S	?	18%	1%	-7%	-7%	-23%	2.0%	2%
CCOc1ccc(C(C(=O)NC2CCCCC2)N(C(=O)Cc2cccs2)c2ccc(-n3cnnn3)c(OC)c2)cc1 (stereo not given)	?	?	?	-1%	17%	-5%	-1.2%	14%
CCN(C(=O)C1CCCN(c2ncnc3onc(-c4ccc(F)cc4)c23)C1)c1ccccc1 (stereo not given)	·	20%[46.1 µM]	·	·	5%	-19%	2.9%	·
CN(C)C(=O)CN(C)S(=O)(=O)c1ccc(Cl)cc1	8%	1%	9%	12%	3%	-13%	2.2%	?
C/C(=N\NC(=O)Cc1ccc(Cl)cc1)c1cccnc1	·	·	0%	-7%	·	-18%	·	20%

Entries above that have two or more sulfur atoms (3):
SMILES	Marburg entry inh	LASV entry inh	SARS PLP yeast	RE007 growth inh	Cruzain noTriton	2A StopGo	Cruzain Triton	NS1 inh
CCCCCCCC(=O)Nc1ccc(S(=O)(=O)Nc2nccs2)cc1	?	-7%	6%	-12%	-1%	25%	-11%	5%
Cc1ccc(C)c(N2CCN(S(=O)(=O)c3ccc(-c4cc(C(F)(F)F)on4)s3)CC2)c1	·	?	·	·	-8%	-16%	3.4%	·
C=CCn1c(=S)sc2c(=O)[nH]cnc21	·	·	0%	1%	·	-5%	·	1%
